Screens deposited in PubChem BioAssay by National Center for Advancing Translational Sciences (NCATS).
Marburg entry: inhibitors of Marburg virus binding or entry into cells; Marburg virus pseudotype entry/binding inhibition, cell-based; control for the full effect not named in the record; many of its hits are not listed in these tables; Potency, µM (doses to about 49.2 µM), without a hit: top-dose activity change, negative = inhibition, hits mostly inhibitors; actives 6.5% (n = 18,000); AID 720532; active means well fitted inhibition curve with a large enough effect; inconclusive means small, poorly fitted or top-dose-only effect; inactive means no such curve, though single readings can be large or run the other way; tested in HEK293 cells; also: luciferase read-out
LASV entry inh: Lassa virus entry inhibition; Lassa virus pseudotyped entry inhibition, cell-based qHTS; control for the full effect not named in the record; many of its hits are not listed in these tables; Potency, µM (highest dose often 49.2 µM), inactives show top-dose activity change, negative = inhibition, hits mostly inhibitors; actives 4.1% (n = 18,000); AID 720533; active = well fitted inhibition curve with a large enough effect; inconclusive = small, poorly fitted or top-dose-only effect; inactive = no such curve, though single readings can be large or run the other way; tested in HEK293 cells; also: luciferase read-out
* hit, by the source's call; & = joins results of further samples; [ ] = remark or other dose. % is scaled to controls: 0 for no effect and ±100 for the full control effect; potency is read from the fitted curve at half-maximal effect. A portion of the library. The share of hits here may be higher or lower than overall.

Results for N[C@]1(C(=O)O)CCc2cc(C(=O)O)ccc21 ?
Marburg entry: 3%; LASV entry inh: -16%

What do the screens show for `FC(F)(F)c1ccccc1-c1nccc(NCc2ccccc2)n1`?
Marburg entry: -13%; LASV entry inh: -7%

Results for Cc1ncc2c(c1CNC(=O)c1ccc3c(c1)OCO3)CCN(C(=O)c1csc3c1CCCC3)C2 ?
Marburg entry: -24%; LASV entry inh: 9%

Results for CC(C)(C)c1ccc(O)c(O)c1 ?
Marburg entry: inconclusive; LASV entry inh: inconclusive

What do the screens show for `O=C(Nc1ccc(O)c2c(=O)cc(-c3ccccc3Cl)oc12)c1ccc(Br)cc1`?
Marburg entry: -5%; LASV entry inh: -3%

What do the screens show for `C[C@H]1CN(c2ccccc2)C(=O)[C@H]1CC(=O)Nc1ccc(Br)cc1`?
Marburg entry: -9%; LASV entry inh: 25%

How did COc1ccc(C2=CC3=C(Br)C(=O)C(C)(OC(=O)CCc4ccccc4)C(=O)C3=CO2)cc1 (configuration not stated) do in these assays?
Marburg entry: 1%; LASV entry inh: -4%

What do the screens show for `COC(=O)C1=C(C(=O)OC)[C@@H]2Nc3ccccc3[C@@]23C[C@@H](C(=O)OC)N(C(=O)Nc2ccccc2F)C3=N1`?
Marburg entry: -9%[8.59 µM]; LASV entry inh: -14%[8.59 µM]

How did Clc1cc(Cl)c(OCC#CI)cc1Cl do in these assays?
Marburg entry: inconclusive; LASV entry inh: inconclusive

Results for O=C(c1ccc(Br)cc1)N1[C@H](COCc2ccccc2)C=CS1(=O)=O ?
Marburg entry: 26%; LASV entry inh: -8%

Results for CC(=O)OCC(=O)[C@@]1(O)CC[C@H]2[C@@H]3C[C@H](C)C4=CC(=O)C=C[C@]4(C)[C@H]3[C@@H](O)C[C@@]21C ?
Marburg entry: -4%; LASV entry inh: -3%

Results for CC(=O)N[C@@H](CSC/C=C(\C)CC/C=C(\C)CC/C=C(\C)CCC=C(C)C)C(=O)O ?
Marburg entry: 21%&-24%&3%; LASV entry inh: -1%&4%&-10%

How did O=C(O)[C@@H]1C[C@@H](C(=O)O)N1 do in these assays?
Marburg entry: 16%&10%; LASV entry inh: -1%&-3%

What do the screens show for `CCCCCC1Nc2cc(C(F)(F)F)c(S(N)(=O)=O)cc2S(=O)(=O)N1` (configuration not stated)?
Marburg entry: 10%; LASV entry inh: -12%

Results for COc1cccc(OC)c1-c1cc(C(=O)NC2(C(=O)O)C3CC4CC(C3)CC2C4)nn1-c1ccc(C(=O)N(C)CCCN(C)C)cc1C(C)C (configuration not stated) ?
Marburg entry: -22%; LASV entry inh: 1%

Results for C#CCCOC(=O)N1C2=NC(C(=O)OC)=C(C(=O)OC)[C@@H]3Nc4ccccc4[C@]23C[C@H]1C(=O)OC ?
Marburg entry: -19%[8.59 µM]; LASV entry inh: 7%[8.59 µM]

Results for O=C(c1ccco1)N1CCN(C2CN(Cc3cn(Cc4ccccc4C(F)(F)F)nn3)S(=O)(=O)C2)CC1 (configuration not stated) ?
Marburg entry: 22%; LASV entry inh: 6%

Results for CCN(C/C=C/C#CC(C)(C)C)Cc1cccc(OCc2cc(-c3ccsc3)cs2)c1 ?
Marburg entry: inconclusive; LASV entry inh: -10%

What do the screens show for `CCCN(C/C=C/I)C1CCc2cccc(O)c2C1` (configuration not stated)?
Marburg entry: inconclusive; LASV entry inh: 8%

Results for O=C(CCc1ccc(O)cc1)c1c(O)cc(O)cc1O ?
Marburg entry: 21%&38%; LASV entry inh: -2%&-13%

What do the screens show for `CCCCCCCCCCCCCC(=O)OC(C)C`?
Marburg entry: 2%; LASV entry inh: -8%

What do the screens show for `CC[C@H]1[C@@H]2C=C[C@@H]3[C@H]4C/C=C\C(=O)NCCC[C@@H]5NC(=O)C(=C5O)C(=O)CC[C@@H]4C[C@@H]3[C@H]2C[C@H]1C`?
Marburg entry: 14µM*; LASV entry inh: 28µM*

Results for COC(=O)C1CCCCN1Cc1nc(N(C)C)c2ccccc2n1 (configuration not stated) ?
Marburg entry: -24%; LASV entry inh: -4%

How did Fc1ccc(-c2c(-c3ccncc3)nc3n2CCS3)cc1 do in these assays?
Marburg entry: inconclusive; LASV entry inh: 34%[activator]

What do the screens show for `COc1ccccc1CN1CCC(n2cc(C(=O)N3CCCCC3)nn2)CC1`?
Marburg entry: 11%; LASV entry inh: -6%

Results for O=C(CCCC[C@@H]1SC[C@H]2NC(=O)N[C@H]12)Nc1ccc(C(=O)O)cc1 ?
Marburg entry: 1%; LASV entry inh: 2%

What do the screens show for `COC(=O)CCC(=O)OC1(C)C(=O)C=C2C=C(C3CC3)N(CCc3c[nH]c4ccccc34)C=C2C1=O` (configuration not stated)?
Marburg entry: 13%[8.59 µM]; LASV entry inh: 9%[8.59 µM]

Results for Cn1cc(C(=O)[C@@H]2CCc3nc[nH]c3C2)c2ccccc21 ?
Marburg entry: -1%; LASV entry inh: 0%

Results for Cc1cnc(C)c(-c2cccc3c2OC(CNC(=O)C[C@@H]2C[C@@H](C)NC(=S)N2)C3)n1 (some centres not stated) ?
Marburg entry: -4%; LASV entry inh: -4%

Results for COCC(=O)Nc1cc(C(=O)NC2CCc3ccccc32)c2c(c1)nc(-c1ccncc1)n2C (configuration not stated) ?
Marburg entry: -2%; LASV entry inh: -16%

Results for NC(=O)Oc1ccc(Cc2ccccc2)cc1 ?
Marburg entry: 28%; LASV entry inh: -10%

How did COc1ccc(C(=O)c2ccc(O)cc2)c(O)c1O do in these assays?
Marburg entry: 11%; LASV entry inh: inconclusive

How did OCc1ccc(-c2ccc(-c3ccc(CO)s3)o2)s1 do in these assays?
Marburg entry: 8%; LASV entry inh: -12%

Results for CC1(C)C(O)CC(O)[C@]2(C)C1CC(O)[C@]1(C)C2CC[C@@]2(C)C(c3ccoc3)OC(=O)C3O[C@]312 (some centres not stated) ?
Marburg entry: inconclusive; LASV entry inh: 2%

What do the screens show for `CO[C@H]1[C@H](NC(=O)c2ccsc2)c2ccccc2C12CCN(Cc1c(O)ccc3ccccc13)CC2`?
Marburg entry: -6%; LASV entry inh: -3%

What do the screens show for `O=C1OCCN1C(=O)[C@H]1[C@H](c2ccc(F)cc2)C(c2ccc(F)cc2)=NN1c1ccccc1`?
Marburg entry: -6%; LASV entry inh: -11%

How did CCCN(CCS(C)(=O)=O)Cc1ccc(-c2ccc3ncnc(Nc4ccc(OCc5cccc(F)c5)c(Cl)c4)c3c2)o1 do in these assays?
Marburg entry: inconclusive

Results for COc1ccc2[nH]c(I)c(CCNC(C)=O)c2c1 ?
Marburg entry: 21%&15%; LASV entry inh: 11%&-5%

Results for CCOC(=O)NN=C1C[C@@H](O)[C@@H](O)[C@@H]2[C@H]3C(=O)N([C@@H](C)c4ccccc4)C(=O)[C@@H]3CC[C@@H]12 ?
Marburg entry: -22%[8.59 µM]; LASV entry inh: -24%[8.59 µM]

Results for CC(C)(C)OC(=O)N1CCC(C(=O)Nc2cccc(C(=O)NCCc3ccccc3)c2)CC1 ?
Marburg entry: 28%; LASV entry inh: 16%

Results for O=C(CCc1ccc(O)cc1)c1c(O)cc(O)cc1O[C@H]1OC(CO)C(O)C(O)C1O (some centres not stated) ?
Marburg entry: 2%; LASV entry inh: 3%

How did COc1ccc2c(c1)C(=O)[C@@H](OC(=O)NC1CCCC1)[C@H](c1ccc(OC)c(Br)c1)O2 do in these assays?
Marburg entry: -8%; LASV entry inh: 4%

What do the screens show for `COc1ccc2c(c1)OCC(Cc1ccc(OC)c(O)c1)C2=O` (configuration not stated)?
Marburg entry: inconclusive; LASV entry inh: -15%

What do the screens show for `C#C[C@]1(OC(=O)CCCCCC)CC[C@H]2[C@@H]3CCC4=CC(=O)CC[C@@H]4[C@H]3CC[C@@]21C`?
Marburg entry: inconclusive; LASV entry inh: 32µM*

What do the screens show for `Cc1cc(F)ccc1O[C@H]1C=C[C@@H](c2ccc3c(c2)OCO3)O[C@H]1CO`?
Marburg entry: 14%[8.59 µM]; LASV entry inh: 10%[8.59 µM]

How did C[C@H]1Cc2c(-c3ccccc3)nc3c(c2CO1)CN(C(=O)Cc1cccs1)CC3 do in these assays?
Marburg entry: 26%[8.59 µM]; LASV entry inh: -19%[8.59 µM]

Results for Cc1cnc(SCCN2CCOCC2)nc1C1CCCN(C(=O)c2cccc3c(C)c(C)[nH]c23)C1 (configuration not stated) ?
Marburg entry: inconclusive; LASV entry inh: inconclusive

How did Cc1cnc(C)c(-c2cccc3c2OC(CNC(=O)CN2C(=O)c4ccccc4C2=O)C3)n1 (configuration not stated) do in these assays?
Marburg entry: 12%; LASV entry inh: -1%

For reference, some entries already given:
What do the screens show for `C#C[C@]1(OC(=O)CCCCCC)CC[C@H]2[C@@H]3CCC4=CC(=O)CC[C@@H]4[C@H]3CC[C@@]21C`?
Marburg entry: inconclusive; LASV entry inh: 32µM*

What do the screens show for `Cc1cc(F)ccc1O[C@H]1C=C[C@@H](c2ccc3c(c2)OCO3)O[C@H]1CO`?
Marburg entry: 14%[8.59 µM]; LASV entry inh: 10%[8.59 µM]

How did C[C@H]1Cc2c(-c3ccccc3)nc3c(c2CO1)CN(C(=O)Cc1cccs1)CC3 do in these assays?
Marburg entry: 26%[8.59 µM]; LASV entry inh: -19%[8.59 µM]

Results for Cc1cnc(SCCN2CCOCC2)nc1C1CCCN(C(=O)c2cccc3c(C)c(C)[nH]c23)C1 (configuration not stated) ?
Marburg entry: inconclusive; LASV entry inh: inconclusive

How did Cc1cnc(C)c(-c2cccc3c2OC(CNC(=O)CN2C(=O)c4ccccc4C2=O)C3)n1 (configuration not stated) do in these assays?
Marburg entry: 12%; LASV entry inh: -1%

The results go on.
How did COC(=O)C1CCN(Cc2ccc3c(c2)CN(C(=O)c2cc(C)oc2C)CCO3)CC1 do in these assays?
Marburg entry: -6%; LASV entry inh: -1%

What do the screens show for `COc1cc2c(C(=O)c3ccccc3)c3c4c(cc(OC)c(OC)c4c2cc1OC)CCN3C`?
Marburg entry: -26%; LASV entry inh: inconclusive

How did Cc1c(C(=O)N2CCCC2)sc2ncnc(NCCCN3CCOCC3)c12 do in these assays?
Marburg entry: 3%; LASV entry inh: -3%

How did CC1(C)CCC(C)(C)c2cc(NC(=O)c3ccc(C(=O)O)cc3)ccc21 do in these assays?
Marburg entry: -15%; LASV entry inh: -24%

Results for CNC(=S)S ?
Marburg entry: 2%; LASV entry inh: -7%

What do the screens show for `O=P(O)(O)OP(=O)(O)OP(=O)(O)O`?
Marburg entry: -9%; LASV entry inh: -8%

How did COc1cccc(CN2C(=O)NC(C)(C3CCN(Cc4cnn(C)c4C)CC3)C2=O)c1OC (configuration not stated) do in these assays?
Marburg entry: -17%; LASV entry inh: -15%

How did Nc1ccc(Cl)cc1N do in these assays?
Marburg entry: -24%[107 µM]; LASV entry inh: -16%[107 µM]

How did Cc1ccc([C@H]2C[C@@H](O)[C@H](n3cc(COC(=O)c4ccccc4)nn3)CN2CC2CCCCC2)cc1 do in these assays?
Marburg entry: -26%

How did Cc1ccc(Nc2ccnc(Nc3cccc(C(N)=O)c3)n2)cc1O do in these assays?
Marburg entry: inconclusive

How did c1ccc([C@H]2CNCc3ccccc32)cc1 do in these assays?
Marburg entry: -11%; LASV entry inh: 1%

What do the screens show for `O=c1ncccn1[C@@H]1O[C@H](CO)[C@@H](O)[C@H]1O`?
Marburg entry: -25%; LASV entry inh: -7%

The list goes on, starting with the last two of the part before.
How did c1ccc([C@H]2CNCc3ccccc32)cc1 do in these assays?
Marburg entry: -11%; LASV entry inh: 1%

What do the screens show for `O=c1ncccn1[C@@H]1O[C@H](CO)[C@@H](O)[C@H]1O`?
Marburg entry: -25%; LASV entry inh: -7%

Results for O=C(Nc1cccc(C(=O)N2CCCCC2)c1)C1CCCCC1 ?
Marburg entry: 32%; LASV entry inh: 16%

Results for CC(=O)N(CC(O)CN(C(C)=O)c1c(I)c(C(=O)NCC(O)CO)c(I)c(C(=O)NCC(O)CO)c1I)c1c(I)c(C(=O)NCC(O)CO)c(I)c(C(=O)NCC(O)CO)c1I (configuration not stated) ?
Marburg entry: 6%[17.8 µM]; LASV entry inh: -22%[17.8 µM]

Results for C[C@@H]1CC[C@H]2C(=O)O[C@H](CN=[N+]=[N-])CN2[C@@H]1c1ccc(Br)cc1 ?
Marburg entry: 1%[8.59 µM]; LASV entry inh: 0%[8.59 µM]

How did CCCCC/C=C\C/C=C\C/C=C\C/C=C\CCCCCC(=O)O do in these assays?
Marburg entry: 3%&10%; LASV entry inh: 5%&-12%

Results for O=C(O)CCC/C=C\C[C@@H]1C(/C=C/[C@@H](O)COc2cccc(C(F)(F)F)c2)[C@@H](O)C[C@@H]1O (some centres not stated) ?
Marburg entry: 1%; LASV entry inh: 0%

What do the screens show for `CO[C@@H]1[C@@H]2OP(=O)(O)OC[C@H]2O[C@H]1n1c(Sc2ccc(Cl)cc2)nc2c(N)ncnc21`?
Marburg entry: 14%; LASV entry inh: 12%

How did Oc1ccc(-c2c(-c3ccccc3)nn3c(C(F)(F)F)cc(C(F)(F)F)nc23)cc1 do in these assays?
Marburg entry: 2%; LASV entry inh: 3%

Results for O=S(=O)(NC1CC1)c1ccc(Br)cc1N1CCC[C@H]1CO ?
Marburg entry: 27%; LASV entry inh: 38%[activator]

What do the screens show for `CC(=O)C1=C(C)N(CC#C[Si](C)(C)C)C(=O)N(C(C)=O)C1c1ccccc1` (configuration not stated)?
Marburg entry: -12%[8.59 µM]

How did COC(=O)c1cc(CNC(=O)c2cnsn2)cc(NC(=O)c2ccccc2OC)c1 do in these assays?
Marburg entry: 5%; LASV entry inh: -4%

What do the screens show for `C[C@@H](O)[C@H]1C(=O)N2C(C(=O)O)=C(S[C@@H]3CN[C@H](C(=O)N(C)C)C3)[C@H](C)[C@H]12`?
Marburg entry: 19%; LASV entry inh: -15%[17.8 µM]

Results for CCC1CN(CCNC(=O)c2ccc(C#CC(C)(C)O)cc2)Cc2cc(OC)ccc2O1 (configuration not stated) ?
Marburg entry: -18%; LASV entry inh: -13%
